Bioassay records from PubChem BioAssay.
LANA-H2B inh: blockers of LANA interaction with H2A/H2B – biochemical, FP readout, HTS, primary screen. Protein LANA1 (Human herpesvirus 8 type P (isolate GK18)), Q9QR71. cell-free LANA-H2A/H2B peptide, fluorescence polarization. inhibition, % (concentration not given with the values). 320,000 compounds, 0.6% hits; in the data active = inhibition mostly above about 10%, no sharp cut-off; inactive = mostly below about 6.7%;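 also: stock transfer was 7.5 nL into about 10 µL; 0% = median of vehicle wells and 100% = median of positive control wells; one replicate is shown; the record names a cut of 25% in any replicate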
E coli growth: E. coli growth inhibition, primary screen, OD600 | Escherichia coli growth, 23 h; hits give low values | OD600 absorbance (test concentration not listed) | 330,000 compounds, 0.21% hits;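 active = OD600 absorbance below the run mean of sample wells minus 3.6 SD, in any replicate, cut at about 0.56 in these data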;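 also: stock transfer was 300 nL into about 60 µL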
FGF22 binding: binders of human FGF22 protein, primary screen, FGF22 synaptogenesis inhibitor project, biophysical, thermal shift, single point | 340,000 compounds, 1.5% hits | recombinant FGF22 thermal shift, SYPRO orange fluorescence; percent of sucrose octasulfate shift, DMSO zero | calls only at 9.99 µM;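 active = melting point raised past a set limit in the mean and every replicate; three in four hits are not shown here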
ALR H2O2 inh: inhibitors of human ALR sulfhydryl oxidase, primary screen, biochemical, H2O2 detection, HRP-luminol luminescence, single point; FAD-linked sulfhydryl oxidase ALR (Homo sapiens), P55789; purified ALR, DTT oxidation; inhibition, % (test concentration not listed); 290,000 compounds, 3.8% hits;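 active = mean and each replicate at 75% or more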;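 also: stock transfer was 7.5 nL into about 7.5 µL; 0% = neutral wells and 100% = wells with inactivated enzyme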
Target sequence (P55789 whole entry, looked up): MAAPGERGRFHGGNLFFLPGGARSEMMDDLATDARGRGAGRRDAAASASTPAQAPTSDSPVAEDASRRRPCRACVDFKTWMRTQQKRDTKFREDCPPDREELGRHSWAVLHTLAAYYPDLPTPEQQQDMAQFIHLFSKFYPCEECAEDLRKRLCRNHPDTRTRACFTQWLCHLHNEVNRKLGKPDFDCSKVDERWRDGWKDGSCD
UCH37 DUB inh: inhibitors of human UCH37 deubiquitinase, primary screen, biochemical, Ub-AMC cleavage, fluorescence | purified proteasome/UCH37 | 330,000 compounds, 0.33% hits | AID 588478, 2011 | inhibition, % (test concentration not listed);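 active = mean of two replicates above 20%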;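 also: 0% = compound-free wells with enzyme and 100% = wells lacking proteasome; stock transfer was 100 nL into about 20 µL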
Target sequence (Q9Y5K5 whole entry, looked up): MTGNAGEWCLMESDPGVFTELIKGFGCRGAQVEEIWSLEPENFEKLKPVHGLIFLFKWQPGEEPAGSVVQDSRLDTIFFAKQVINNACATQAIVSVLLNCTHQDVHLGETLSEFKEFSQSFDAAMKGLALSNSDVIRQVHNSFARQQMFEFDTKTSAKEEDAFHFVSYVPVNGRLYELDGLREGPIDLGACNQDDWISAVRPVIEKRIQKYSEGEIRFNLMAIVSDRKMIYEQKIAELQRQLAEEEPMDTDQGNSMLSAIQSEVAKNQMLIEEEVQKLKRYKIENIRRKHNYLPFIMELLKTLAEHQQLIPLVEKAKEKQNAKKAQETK
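Signal – fluorescence, ex 355 nm, em 460 nm · System – Proteasome-bound UCH37 · Input – 0.15 nM proteasome as dispensed · Timing – 30 min preincubation with enzyme, 25 min cleavage at room temperature · Read-out basis – percent inhibition of cleavage signal versus uninhibited and no-proteasome wells · Medium – Tris-HCl pH 7.4 with ATP-MgCl2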
B2AR ag: beta2AR agonists driving receptor internalization, primary screen, cell-based, FAP fluorogen, flow cytometry; Beta-2 adrenergic receptor (Homo sapiens), P07550; Am2.2-beta2AR cells; reference of the scale not given here; response, % (no concentration beside the values); 340,000 compounds, 0.43% hits; AID 504454, 2011;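 active = response above a set limit, near 3 SD of response in nonfluorescent compounds, cut at about 42% in these data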;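 also: stock transfer was 100 nL into about 11 µL; a reference agonist was the positive control; negative values mostly stem from fluorescent compounds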
HNF4A DNA FP: change in binding of human HNF4A to DNA, primary screen, biochemical, fluorescence polarization, FITC-DNA. 1 h. Hepatocyte nuclear factor 4-alpha (Homo sapiens), P41235. activity change, % at 10 µM. 360,000 compounds, 0.3% hits; in the data active = activity change above about 30%, passing the limit was not always enough;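 also: controls were the assay level and a saturating level of protein; the project sought stronger binding though the title names inhibitors; some compounds called inactive have numbers as strong as hits; positive values seem to mean higher polarization but the record does not say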
Target sequence (P41235 whole entry, looked up): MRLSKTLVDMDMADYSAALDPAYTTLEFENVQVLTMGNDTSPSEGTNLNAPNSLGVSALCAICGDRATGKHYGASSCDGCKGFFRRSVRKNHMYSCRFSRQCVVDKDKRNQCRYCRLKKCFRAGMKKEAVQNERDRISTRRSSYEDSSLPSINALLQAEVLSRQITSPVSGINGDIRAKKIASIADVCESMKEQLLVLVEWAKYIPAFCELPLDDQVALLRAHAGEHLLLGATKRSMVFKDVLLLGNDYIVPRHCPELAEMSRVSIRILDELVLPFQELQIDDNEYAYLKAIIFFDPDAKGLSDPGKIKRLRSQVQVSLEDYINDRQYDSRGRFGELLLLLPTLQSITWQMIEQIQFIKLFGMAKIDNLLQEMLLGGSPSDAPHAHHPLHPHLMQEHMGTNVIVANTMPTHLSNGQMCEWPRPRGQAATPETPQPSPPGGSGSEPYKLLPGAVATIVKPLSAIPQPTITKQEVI
* = called active by the depositor; i = inactive; . = no result given. A portion of the library; count on the stated rates, not on these rows.

SMILES | LANA-H2B inh | E coli growth | FGF22 binding | ALR H2O2 inh | UCH37 DUB inh | B2AR ag | HNF4A DNA FP
O=C(O)c1ccc(NC(=O)c2ccccc2NC(=O)c2ccccc2Br)cc1 | -6.5 | 0.67 | i | 5 | 2.2 | -1 | 1.1
COC(=O)C1=C(C)N(CC(C)C)C(=O)C1 | 4.1 | 0.69 | . | -10 | -1.0 | 0 | -4.3
Cn1nnnc1SCC(=O)Nc1nc2ccccc2s1 | -3.9 | 0.7 | i | 5 | 1.3 | 0 | -0.1
O=S(=O)(c1ccc(N2CCOCC2)c(Cl)c1)N1CCOCC1 | -4.7 | 0.68 | i | -4 | 3.8 | -4 | 0.9
COc1ccc(N(CC(=O)N2CCc3ccccc3C2)S(=O)(=O)c2c(C)nn(C)c2C)cc1 | -0.8 | 0.71 | i | -10 | 5.2 | -17 | 3.2
CCOc1ccccc1NC(=O)c1ccc(OCC)c([N+](=O)[O-])c1 | -3.5 | 0.7 | i | . | -1.0 | -2 | 2.9
COc1ccc(N2CCN(C(=O)c3cccc4nc(C)oc34)CC2)cc1 | -0.8 | 0.68 | i | -9 | 1.3 | 3 | 0.0
COc1ccc(CCNS(=O)(=O)CCNC(=O)c2ccccc2)cc1 | 0.0 | 0.67 | i | -1 | 0.4 | -1 | 3.9
CC1(C)Cc2c(cnn2-c2cccc(F)c2)C(NC(=O)Cn2cccn2)C1 (centres undefined) | 8.5 | 0.69 | i | -10 | 3.6 | -4 | 0.0
COC(=O)C(NC(=O)CCc1c(C)nc2c(c(C)nn2-c2ccccc2)c1C)C(C)C (centres undefined) | 1.3 | 0.62 | i | -4 | -29 | -1 | 1.6
Cc1ccccc1OCCNC(=O)CSc1ccc(C(F)(F)F)cc1[N+](=O)[O-] | -1.8 | 0.71 | i | 0 | 0.3 | -7 | -1.2
CCSCc1nnc(SCC(=O)Nc2nc(C)cs2)n1C | -1.2 | 0.71 | i | -3 | 0.8 | . | .
O=C(C[C@H]1C[C@H](C(=O)N2CCOCC2)[C@@]2(CCC3CCCC3)c3[nH]c4cc(-c5ccco5)ccc4c3CCN2C1=O)NCc1ccco1 | . | 0.69 | i | . | -9.0 | 9 | 4.8
O=C(NNC(=S)NCCCN1CCOCC1)c1ccncc1 | -2.0 | 0.64 | i | 26 | 2.3 | 1 | -1.4
CCc1ccc(S(=O)(=O)Nc2ccc(Br)cn2)cc1 | -3.4 | . | i | -3 | . | 6 | 0.9
CC(C)CCNc1nc2c(cc1C#N)COC(C)(C)C2 | 3.5 | 0.73 | . | 4 | -229 | -4 | 0.7
CC(=O)c1ccc(NC(=O)C(C)Oc2ccc(N(C)S(=O)(=O)c3ccc(C)cc3)cc2)cc1 (centres undefined) | -2.8 | 0.64 | i | 2 | 2.4 | -8 | -7.0
NC(=O)C1(N2CCCC2)CCN(Cc2ccccc2)CC1 | . | 0.67 | i | . | 2.9 | -1 | 0.5
Cc1ccc(C)c(N2CCN(C(=O)CCCOc3cc(=O)n(C)c4ccccc34)CC2)c1 | -3.3 | 0.72 | . | -5 | 2.6 | 23 | -3.0
COc1ncc(-c2ccc3c(c2)S(=O)(=O)c2cccc(C(=O)O)c2C3=O)cn1 | 2.0 | 0.73 | i | -1 | 0.4 | 1 | 3.0
O=C(Nc1nc2c(Cl)c(Cl)ccc2s1)C1CC1 | -6.4 | 0.72 | i | 6 | 0.2 | 2 | -4.2
CCN(CC)S(=O)(=O)c1ccc(NC(=O)C2CCCO2)cc1 (centres undefined) | 3.4 | 0.64 | i | -3 | -0.3 | 6 | -2.4
Cc1ccc(OCC(=O)N/N=C\c2ccncc2)c(C)c1 | -9.9 | . | i | -6 | . | -8 | -1.5
COc1ccc(-c2cn3cccnc3n2)cc1Br | -0.1 | 0.61 | i | -13 | i | -21 | 0.3
CCCCn1c(N)c(N2CCOCC2)c(=O)n(CC(=O)NC(C)c2ccccc2)c1=O (centres undefined) | 0.9 | 0.67 | i | 1 | -2.8 | -6 | -5.0
Further structures
SMILES | LANA-H2B inh | E coli growth | FGF22 binding | ALR H2O2 inh | UCH37 DUB inh | B2AR ag | HNF4A DNA FP
Cc1cc(NCc2ccc(F)cc2Cl)n2nnnc2n1 | 1.5 | 0.65 | . | 1 | 0.2 | 1 | 0.8
C=CS(=O)(=O)N(Cc1ccccc1)[C@H](CO)CC(C)C | . | . | i | . | 0.6 | 1 | 3.5
COc1ccc(CNC(=O)c2cc3c(=O)[nH]c4ccccc4c3n2C)cc1 | 1.8 | 0.69 | i | -2 | -4.6 | 1 | 5.0
COCCCN(CCC#N)C(=O)c1c(-c2c(Cl)cccc2Cl)noc1C | 0.9 | 0.68 | i | -5 | 4.6 | -2 | -2.2
NC1=Nc2cccc3cccc1c23 | 5.2 | 0.66 | . | -24 | -34 | 7 | 3.5
CCN1CCN(C(=O)C(C)Sc2nnc3nc(C)cc(C)n23)CC1 (centres undefined) | -1.6 | 0.66 | i | . | -7.8 | 41 | -1.8
CN1CCN(S(=O)(=O)c2ccc(Sc3nc4ccccc4[nH]3)c3nsnc23)CC1 | -4.9 | 0.74 | . | -18 | 7.6 | 2 | -1.0
CCOc1ccc(Oc2c(C)oc3cc(O)ccc3c2=O)cc1 | 0.1 | 0.64 | i | 3 | -289 | -12 | -1.0
O=C(Nc1cccnc1)C1(c2ccccc2)CCCC1 | -0.2 | 0.67 | . | -6 | 0.4 | -5 | 6.4
CN(CC(=O)Nc1ccncc1)S(=O)(=O)c1ccc(Br)cc1 | 1.7 | 0.7 | . | -4 | 2.7 | -15 | -2.9
O=C(NCc1cccnc1)C1CCCN(S(=O)(=O)c2ccc(Cl)cc2)C1 (centres undefined) | 1.4 | 0.72 | . | -2 | 2.8 | -12 | 2.9
COc1ccccc1CNC(=O)c1cc(S(=O)(=O)N2CCCC2)cn1C | 1.7 | 0.71 | i | -10 | 1.2 | -2 | 1.9
CCOC(=O)N1CCN(CCC(=O)Nc2cc(OC)cc(OC)c2)CC1 | -0.9 | 0.71 | . | -4 | 3.3 | 2 | -0.2
CC1(C)CC(=O)C(C=NCC(O)c2ccccc2)=C(O)C1 (centres undefined) | 7.3 | 0.76 | . | -11 | 1.5 | -3 | 0.0
Brc1ccc(/C=N/c2nc3ccccc3n2CCN2CCOCC2)cc1 | 1.0 | . | . | -5 | . | -10 | -1.2
Cc1nnn(C23C[C@@H]4C[C@@H](CC(C(=O)N5CCN(c6ccccc6)CC5)(C4)C2)C3)n1 | -1.5 | 0.63 | i | 50 | 9.2 | 15 | -1.4
CCOc1ccc(N(CC(=O)N/N=C(\C)c2cccc(NC(C)=O)c2)S(=O)(=O)c2ccccc2)cc1 | -0.6 | . | i | -1 | . | -7 | -0.4
CCOC(=O)C(Sc1nn(C)c(=S)s1)C(C)=O (centres undefined) | 0.6 | 0.69 | . | 94* | 6.8 | -2 | -3.9
COc1cc(OC)cc(C(=O)NC(C)c2ccc(Br)cc2)c1 (centres undefined) | 3.6 | 0.74 | i | 0 | 2.9 | 0 | -4.1
COc1ccc(C2=NOC(C(=O)Nc3cc(C)on3)C2)cc1OC (centres undefined) | -0.5 | 0.65 | . | . | 1.0 | 0 | 1.0
Cc1ccc2nc(N3CCN(Cc4ccc(F)cc4)C3=O)c(C)cc2c1 | -2.6 | 0.68 | . | -9 | 1.5 | 26 | 2.8
Cc1cc(C)c(NC(=O)c2ccc3c(c2)NC(=O)C(C)S3)c(C)c1 (centres undefined) | -6.1 | 0.67 | i | 4 | 1.5 | 1 | 1.6
CCOC(=O)c1c(C)[nH]c(C(=O)OCC(=O)NCCc2ccc(OCC)c(OCC)c2)c1C | -0.3 | 0.68 | i | -4 | 4.2 | 3 | -0.4
CN1C(=O)CC(c2ccccc2)CC1=O | 1.6 | . | i | -2 | 2.4 | -1 | 1.4
CC(C)(C)OC(=O)NC(=NCCCc1cn(CC(=O)N2CCN(C(=O)OC(C)(C)C)CC2)nn1)NC(=O)OC(C)(C)C | 3.3 | 0.67 | i | -4 | 1.8 | -9 | -1.2

The final four compounds of the section before open the next one:
SMILES | LANA-H2B inh | E coli growth | FGF22 binding | ALR H2O2 inh | UCH37 DUB inh | B2AR ag | HNF4A DNA FP
Cc1cc(C)c(NC(=O)c2ccc3c(c2)NC(=O)C(C)S3)c(C)c1 (centres undefined) | -6.1 | 0.67 | i | 4 | 1.5 | 1 | 1.6
CCOC(=O)c1c(C)[nH]c(C(=O)OCC(=O)NCCc2ccc(OCC)c(OCC)c2)c1C | -0.3 | 0.68 | i | -4 | 4.2 | 3 | -0.4
CN1C(=O)CC(c2ccccc2)CC1=O | 1.6 | . | i | -2 | 2.4 | -1 | 1.4
CC(C)(C)OC(=O)NC(=NCCCc1cn(CC(=O)N2CCN(C(=O)OC(C)(C)C)CC2)nn1)NC(=O)OC(C)(C)C | 3.3 | 0.67 | i | -4 | 1.8 | -9 | -1.2
COc1ccc2nc(NC(=O)c3ccc(F)cc3)sc2c1 | 1.0 | 0.73 | i | -9 | -95 | 3 | 2.8
COc1ccc(CNC(=O)C(C)Cc2ccccc2)cc1O (centres undefined) | 10.0 | 0.66 | i | 43 | 2.6 | -4 | 3.1
CC1CN(C2CCN(C(=O)COc3ccccc3)CC2)CC(C)O1 (centres undefined) | 0.2 | 0.72 | . | -1 | 4.8 | 1 | 0.9
C=CCN1C(=O)C2C3CC(=O)C(c4ccccc43)C2C1=O (centres undefined) | 2.8 | 0.63 | i | -4 | 0.9 | -8 | -0.9
COc1ccc(-n2c(=O)cc(N3CCN(c4ccccc4F)CC3)[nH]c2=O)cc1 | 3.2 | 0.73 | . | -1 | 1.9 | 1 | 0.8
CCOC(=O)C1=CNS(=O)(=O)NC1c1ccc(C[C@H](NC(=O)CNC(=O)CCc2ccccc2)C(N)=O)cc1 (some centres undefined) | . | 0.7 | i | . | -9.9 | -1 | 0.5
COc1ccc(C(=O)N2CCN(S(=O)(=O)c3cc(Cl)ccc3OC)CC2)cc1 | 1.2 | 0.75 | . | 5 | 2.2 | -4 | -1.7
CC1CCN(CC(O)COc2cccc(F)c2)CC1 (centres undefined) | 3.6 | 0.74 | i | 18 | 1.5 | -3 | 2.8
CC(C)(O)C#Cc1ccc(C(=O)NCc2ccccc2F)cc1 | 8.6 | 0.72 | i | -3 | 1.7 | 3 | -0.4
O=C(CSc1nnc(-c2ccncc2)o1)Oc1ccccc1 | -3.1 | 0.67 | . | 12 | -3.6 | -1 | 1.6
CC(=O)c1c(C)oc2ccc(NS(=O)(=O)c3ccc(O)c(C(=O)O)c3)cc12 | 1.8 | 0.72 | . | 16 | 3.2 | -2 | -3.0
COC(=O)CSC1=C(C#N)C(c2ccc3c(c2)OCO3)C2=C(CCCC2=O)N1 (centres undefined) | -0.2 | 0.68 | . | 99* | 1.8 | -3 | 0.5
Cc1ccc(NC(=O)c2ccc(OCC3CCCO3)cc2)nc1 (centres undefined) | 0.7 | 0.67 | i | 4 | 3.3 | -1 | -3.5
COc1ccccc1C(=O)Nc1ccc(N2CCN(C(C)=O)CC2)cc1 | -2.1 | 0.69 | . | 30 | 3.2 | -1 | 1.6
O=C(CN1C(=O)COCC1=O)N1CCOCC1 | -2.4 | 0.71 | . | -8 | 1.7 | 5 | 0.0
COCCN(C(=O)CSc1nnc(-c2cccc(F)c2)n1N)c1c(N)n(CC(C)C)c(=O)[nH]c1=O | -2.5 | 0.69 | i | -13 | 4.5 | 2 | 5.0
CCN(CC)CCCC(C)Nc1nccc2c(Cl)cccc12 (centres undefined) | . | . | i | . | . | 14 | 1.2
COc1ccccc1Nc1nc(N2CCCC2)nc(N2CCOCC2)n1 | -1.9 | 0.69 | i | 4 | 3.9 | 1 | 2.1
